Vaccinia mCherry – vaccinia inhibition (mCherry reporter). Vaccinia virus mCherry reporter infection, fluorescence; about a quarter of the inactives have no number. Potency, µM (series often up to 36.5 µM), without a hit: at the top dose activity change, negative = inhibition, usual class: inhibitors. hit rate 0.63% among 310,000; active = well fitted inhibition curve with a large enough effect; inconclusive = small, poorly fitted or top-dose-only effect; inactive = no such curve, though single readings can be large or run the other way; tested in A549 cells; also: nearly all actives have a fitted effect of over 35% in size; inactives centre near -10
Vaccinia Venus – vaccinia inhibition (Venus reporter); Vaccinia virus Venus reporter expression, fluorescence; Potency, µM (top dose mostly 36.5 µM), without a hit: top-dose activity change, negative = inhibition, actives largely listed as inhibitors; hit rate 0.46% among 330,000; AID 720580; active means well fitted inhibition curve with a large enough effect; inconclusive means small, poorly fitted or top-dose-only effect; inactive means no such curve, though single readings can be large or run the other way; tested in A549 cells; also: nearly all actives have a fitted effect of over 30% in size; inactives centre near -10
The depositor's hits bear a star; i = inactive; ? = inconclusive; . = no result given; & = joins results of further samples; [ ] = remark or other dose. % is scaled to controls: 0 for no effect and ±100 for the full control effect; potency is read from the fitted curve at half-maximal effect. Not a hit list; any-hit rate near 0.87%.

SMILES | Vaccinia mCherry | Vaccinia Venus
CCOC(=O)/C(=N/Nc1ccc(Br)cc1)N1CC(C)OC(C)C1 (stereo not given) | ? | -17%
COc1ccc(OC)c(/C=C/c2[nH]c(=O)[nH]c(=O)c2[N+](=O)[O-])c1 | i | -17%
COCCCNC(=O)CSc1nc2c(sc3ccccc32)c(=O)n1CCc1ccc(OC)c(OC)c1 | 5% | -5%
CCOc1c(N2CCCCC2)c(=O)c1=O | . | 14%
CCOc1ccc(CN(C)C(C)C(=O)Nc2ccc([N+](=O)[O-])cc2Cl)cc1OC (stereo not given) | -8% | -13%
Cc1ccc(NS(=O)(=O)c2cc(C(=O)N3CCN(C)CC3)ccc2C)cc1 | ? | -29%
COc1ccc(CCNC(=O)COc2cccc(-n3cnnn3)c2)cc1 | -7% | -6%
COc1ccc(N2CCN(C(=O)CNC(=O)c3ccc(C(C)(C)C)cc3)CC2)cc1 | . | -30%
Nc1ncnc2c1ncn2[C@@H]1O[C@H](CNC(=O)[C@@H]2CCCN2S(=O)(=O)c2ccc(F)cc2)[C@@H](O)[C@H]1O | i | -13%
Cc1cc(OC(C)C(=O)NC(Cc2c[nH]c3ccc(O)cc23)C(=O)O)c2c(C)cc(=O)oc2c1 (stereo not given) | 4% | 5%
O=C(NCc1cccnc1)/C(=C\c1ccc(-c2cccc(Cl)c2)o1)S(=O)(=O)c1ccccc1 | 11µM* | 10µM*
COc1ccc(-n2nc([N+](=O)[O-])c(=NCCc3ccc(OC)c(OC)c3)n2O)cc1 | -23% | -14%
CCn1cnc2cc(NC(=O)c3cccs3)ccc21 | -8% | -5%
O=C1C(Cc2c[nH]c3ccccc23)NC(=S)N1Cc1ccccc1 (stereo not given) | -12% | -4%
Cc1cc(CN(C)C(=O)c2ccc(OC3CCN(CCc4ccccc4)CC3)cc2)on1 | i | -18%
Nc1ncnc(Nc2ccccc2C(F)(F)F)n1 | . | -13%
Cc1ccc(NS(=O)(=O)c2c(C(=O)N3CCCCCC3)c(C)n(C)c2C)cc1F | -10% | -10%
CC12CC(c3ccccc3O1)C(C(=O)NCc1ccccc1)C(=O)N2 (stereo not given) | -14% | -14%
CCOC(=O)N1CCN(C(=S)Nc2cc(OC)c(OC)cc2C(=O)OC)CC1 | i | -9%
O=C(CCN1C(=O)C2C3C=CC(C3)C2C1=O)NCCN1CCCc2ccccc21 (stereo not given) | -12% | -6%
O=C(COC(=O)C1C2CC3OC(=O)C1C3C2)Nc1cccc(Cl)c1 (stereo not given) | -15% | 2%
C/C(=N\NC(=O)c1ccc(Cl)cc1)c1ccc(N2CCOCC2)cc1 | i | -9%
Cc1ccc2c(c1)c(/C=C/c1cc[n+](C)cc1)c(C)n2C | -23% | i
Cc1ccc(S(=O)(=O)N(C)C)cc1NC(=S)N1CCN(Cc2ccc3c(c2)OCO3)CC1 | ? | ?
CCCCc1c(-c2ccc(Cl)cc2)ncn1CCc1ccccc1OC | ? | -27%
(continued)
SMILES | Vaccinia mCherry | Vaccinia Venus
Cc1nc(CN(C)Cc2nc(Cc3cccc(F)c3)no2)cs1 | -1% | -16%
Cc1cc(N2CCOCC2)ccc1/C=C\[N+](=O)[O-] | ? | 10µM*
CCOC(=O)N1CCN(C(=O)C(C)N(c2ccccc2)S(C)(=O)=O)CC1 (stereo not given) | -5% | 1%
COc1ccc(CNS(=O)(=O)c2ccc3c(c2)C(C)(C)C(=O)N3C)cc1 | -15%[7.34 µM] | -5%[7.34 µM]
Cc1ccc(-c2c(C#N)c(N)nc3c2CCCCC3)cc1 | i | -9%
O=CNc1ccc(OC(=O)c2cncc(Br)c2)cc1 | 10% | -17%
O=C(Nc1ccccc1)OCCc1ccccc1 | -7% | -10%
Cc1ccc2c(CN3C(=O)NC(C)(c4ccc5c(c4)OCO5)C3=O)cc(=O)oc2c1 (stereo not given) | i | -11%
CC(C)(C)c1ccc(C(CC(=O)O)NC(=O)Cc2ccccc2)cc1 (stereo not given) | i | 2%
CC(=O)N1CN2CN(C(C)=O)CC(C(=O)c3ccccc3)(C2)C1 | -12% | -7%
COc1ccc(-c2noc(CCC(=O)NCC3CCN(Cc4cccc(C)c4)CC3)n2)cc1 | -31% | -24%
CC(=O)c1cccc(NS(=O)(=O)c2ccc(NC(=O)N3CCCCC3)cc2)c1 | -12% | -21%
COc1ccc2cc(CN(CC3CCCO3)C(=O)Nc3ccccc3OC)c(=O)[nH]c2c1 (stereo not given) | ? | -27%
O=C1NC(=O)N(CCc2ccc(F)cc2)C(=O)/C1=C/c1cccs1 | 22% | 27%
Cc1cc(C(=O)OCC(=O)c2ccccc2)c2ccccc2n1 | 26% | -2%
CCCCn1c(N)c(N(CC(C)C)C(=O)c2cc(-c3ccco3)nc3ccccc23)c(=O)[nH]c1=O | -20% | -8%
COc1ccc(C(=O)N2CCN(c3nc4cc(C)cc(C)c4cc3C#N)CC2)cc1 | -23% | -26%
Cc1ccc(S(=O)(=O)NCC(=O)OCC(=O)N2C(C)CCCC2C)cc1 (stereo not given) | i | 0%
CCOC(=O)c1c(NC(=O)CN2CCC(C)CC2)sc(C)c1C | -6% | -7%
O=C(CSc1nnnn1-c1ccc(Cl)c(C(=O)O)c1)NC(c1ccccc1)c1ccccc1 | i | 2%
CC(C)c1ccc(NC(=O)CSc2n[nH]c(=O)n2C2CC2)cc1 | -18% | -15%
O=c1cc(Cl)[nH]c(=O)n1CCNc1ncc(C(F)(F)F)cc1Cl | . | -3%
O=C(c1cnn2c(C(F)(F)F)cc(-c3ccc(Br)cc3)nc12)N1CCOCC1 | -15% | -2%
C[C@H](CO)N1C[C@H](C)[C@@H](CN(C)C(=O)c2cccc(F)c2)Oc2cc(-c3cncnc3)ccc2S1(=O)=O | -10% | -6%
CC1(Cc2ccccc2C#N)C(=O)Nc2ccc(OC(F)(F)F)cc21 (stereo not given) | i | -12%
The list goes on:
SMILES | Vaccinia mCherry | Vaccinia Venus
O=C(Nc1ccc(Cl)cc1)c1ccco1 | ? | -4%
CC(C)[C@H](O)CC[C@@H](C)C1CC[C@H]2C3CC=C4C[C@@H](O)CC[C@]4(C)C3CC[C@]12C (stereo not given in full) | -8%&-14% | -9%&-2%
Cc1cc(=O)n2[nH]c(C)c(-c3ccccc3)c2n1 | -9% | -9%
Cc1ccc(C)c(Nc2nc3ccc(C)cc3n3cnnc23)c1 | 3% | -7%
N#CCC(=O)Nc1ccc(C(=O)OCC(=O)c2ccc3c(c2)OCCO3)cc1 | -9% | -7%
O=C(NCc1ccco1)C1CCN(c2ccc(S(=O)(=O)N3CCOCC3)cc2[N+](=O)[O-])CC1 | i | -8%
COc1ccccc1CCNC(=O)C(C)Sc1nc(-c2ccccc2)cc(C(F)(F)F)n1 (stereo not given) | -17% | -9%
CC(=O)Nc1cccc(Nc2nc(-c3ccccc3F)nc3ccccc23)c1 | -26% | -26%
CC(=O)c1ccc(OCC(O)CN(C)Cc2cccs2)cc1 (stereo not given) | -16% | -2%
CC(=O)Nc1ccc(OC(=O)c2ccccc2O)cc1 | -13% | -12%
CCCC(=O)Nc1ccc(C)c(O)c1 | . | -17%
Cc1ccc(NC(NC(=O)c2cccs2)C(Cl)(Cl)Cl)cc1C (stereo not given) | -26% | -25%
CCOC(=O)[C@]12CCCC=C1N(Cc1ccco1)C(=O)[C@H](CC(=O)N1CCC(c3ccccc3)CC1)C2 | 2% | 0%
CN1CCN(C(=O)CCN2C(=O)/C(=C/c3ccc(F)cc3)SC2=S)CC1 | i | -2%
COc1cc(N/N=C/c2ccccc2O)ncn1 | 14µM* | ?
CC(=O)Nc1ccc(NC(=O)CC(C)n2ccnc2)cc1 (stereo not given) | 0% | -7%
COc1cccc(NC(=O)CN(C)C(=O)CN2C(=O)c3ccc([N+](=O)[O-])cc3C2=O)c1 | -9% | 7%
CCc1cccc(CC)c1-n1c(SCC(=O)N2CCc3ccccc32)nc(O)cc1=O | -26% | -2%
C=CCN(C)CC/C=C1\c2ccccc2CSc2ccccc21 | ? | -20%
Cc1c(Cc2ccccc2)c(=O)oc2cc(OC(C)C(=O)NCC3CCC(C(=O)O)CC3)c(Cl)cc12 (stereo not given) | -3% | 0%
CCCCC(=O)Nc1nnc(S(=O)(=O)N(C)Cc2ccccc2)s1 | -5%[7.34 µM] | -4%[7.34 µM]
COc1ccccc1CNC(=O)C(Cc1ccccc1)NS(=O)(=O)c1ccc2c(c1)CCN2C(C)=O (stereo not given) | -19% | -12%
CN(CCCNC(=O)CCC(=O)N1CCOc2ccc(Cl)cc21)Cc1ccccc1 | 9% | 0%
CCCCCCn1c(CN2CCN(C)CC2)nc2c1c(=O)n(C)c(=O)n2C | 2% | -7%
CCCCn1c(N)c(N(CCOC)C(=O)c2ccc3c(c2)C(=O)N(c2ccccc2C)C3=O)c(=O)[nH]c1=O | -7% | 3%

Filtered by structure, the compounds so far containing a thiophene ring, fused or not
SMILES | Vaccinia mCherry | Vaccinia Venus
COCCCNC(=O)CSc1nc2c(sc3ccccc32)c(=O)n1CCc1ccc(OC)c(OC)c1 | 5% | -5%
CCn1cnc2cc(NC(=O)c3cccs3)ccc21 | -8% | -5%
O=C1NC(=O)N(CCc2ccc(F)cc2)C(=O)/C1=C/c1cccs1 | 22% | 27%
CCOC(=O)c1c(NC(=O)CN2CCC(C)CC2)sc(C)c1C | -6% | -7%
CC(=O)c1ccc(OCC(O)CN(C)Cc2cccs2)cc1 (stereo not given) | -16% | -2%
Cc1ccc(NC(NC(=O)c2cccs2)C(Cl)(Cl)Cl)cc1C (stereo not given) | -26% | -25%

Additional compounds:
SMILES | Vaccinia mCherry | Vaccinia Venus
COc1cc(C(=O)O/N=C2\CCCc3c2ccc(OC)c3[N+](=O)[O-])cc(OC)c1OC | -16% | -15%
CN(Cc1nc2c(s1)CCCC2)C(=O)CCc1nnc(-c2ccccc2)o1 | i | -13%
Cc1ccc2onc(CNC(=O)Nc3ccccc3C#N)c2c1 | 1% | -15%
CCc1nc(NC(C)C)c2oc3ccccc3c2n1 | -13%[1.46 µM] | -29%
Cc1cc(-c2ccc(Cl)s2)n[nH]1 | -20% | -6%
O=C(C1CCN(S(=O)(=O)c2cccc3cccnc23)CC1)N1CCn2c1nc1ccccc12 | i | -10%
Cc1ccc(-c2nc3cnccn3c2Nc2c(C)cccc2C)o1 | -27% | -15%&-16%
CCOC(=O)C1=C(C)Nc2ccccc2N/C1=N\S(=O)(=O)c1ccccc1 | -22% | -11%
C[C@@H](NC(=O)c1nc[nH]c1C(=O)N(C)Cc1ccccc1)c1ccccc1 | -18% | -6%
N#Cc1ccc2c(c1)NC(=O)C1CCCN21 (stereo not given) | -10% | -2%
O=C(N/N=C1\CC(c2ccccc2)Oc2ccccc21)c1ccccn1 (stereo not given) | -9% | 0%
CCCNC(=O)C(Cc1ccccc1)NC(=O)c1ccc(C(F)(F)F)cc1 (stereo not given) | -6% | -16%
COc1ccc(C2C(C(=O)NCc3ccco3)c3ccccc3C(=O)N2C)cc1 (stereo not given) | -8% | -3%
CCC(=O)c1ccc(N2CCN(C(=O)c3ccccc3Br)CC2)c(F)c1 | -7% | -2%
Cc1cc(C)c(C)c(S(=O)(=O)N2CCN(CC(=O)NC(=O)NCc3ccccc3)CC2)c1C | . | ?
CCc1ccc(-c2cc(C(F)(F)F)n3nc(C(=O)Nc4c(C)nn(Cc5ccccc5Cl)c4C)cc3n2)s1 | -6% | -7%
CC1(C)CC(=O)C(C=Nc2ccccc2C(=O)O)=C(O)C1 | -22% | -8%
CC(=O)NO | -8%&-3% | -8%&-6%
CCCCCC(=O)Nc1ccc(Cl)cn1 | -10% | -8%
CN(C)S(=O)(=O)c1ccc(NC(=O)COC(=O)Cn2[nH]c(=O)c3ccccc3c2=O)cc1 | -9% | -5%
CCc1nc2c(OCc3ccc(C(F)(F)F)cc3)cccn2c1N(C)C(C)=O | i | -13%
CSc1ccc(C2CC(=O)Oc3c2c(=O)n(C)c2ccccc32)cc1 (stereo not given) | -26% | -21%
CCOc1cc(NC(=S)NCCCN2CCOCC2)c(OCC)cc1NC(=O)c1ccc(OC)cc1 | ? | -5%
CC(C)Oc1ccc(C(=O)/C=C2/C(=O)Nc3ccccc32)cc1 | -17% | -15%
CCCN1CCN(c2nnc(-n3cccc3C(=O)Nc3cc(Cl)ccc3C)s2)CC1 | -20% | -13%
Carrying on:
SMILES | Vaccinia mCherry | Vaccinia Venus
O=C(c1cc2cc3ccc(Cl)cc3nc2o1)N1CCC2(CC1)OCCO2 | -10% | -2%
CN(C1CCCCC1)S(=O)(=O)c1ccc(NC(=O)CCC(=O)O)cc1 | . | -5%
Cc1nn2c(NCc3ccccn3)c3c(nc2c1-c1ccccc1)CCC3 | 10µM* | ?
CCn1c(C)nc2cc(C(=O)NNC(=S)Nc3ccc(Cl)cc3Cl)ccc21 | -21% | -9%
CC(OC(=O)CCCc1c[nH]c2ccccc12)C(=O)Nc1ccc(S(N)(=O)=O)cc1 (stereo not given) | -9% | -2%
Cc1ccc(S(=O)(=O)N/N=C/c2cn(C)nc2C)cc1 | . | -16%
Cc1ccc(NC(=O)CSc2nc(=O)n(CCN3CCOCC3)c3c2CCC3)cc1Cl | -8%[7.34 µM] | -10%[7.34 µM]
CCCCc1nnc(NC(=O)C2CCCO2)s1 (stereo not given) | -18% | -6%

One compound at a time (already shown). Screens in order: Vaccinia mCherry	Vaccinia Venus
CC(OC(=O)CCCc1c[nH]c2ccccc12)C(=O)Nc1ccc(S(N)(=O)=O)cc1 (stereo not given) as listed: -9%	-2%
CCCCc1nnc(NC(=O)C2CCCO2)s1 (stereo not given) as listed: -18%	-6%
CCn1c(C)nc2cc(C(=O)NNC(=S)Nc3ccc(Cl)cc3Cl)ccc21 as listed: -21%	-9%
O=C(c1cc2cc3ccc(Cl)cc3nc2o1)N1CCC2(CC1)OCCO2 as listed: -10%	-2%
Cc1ccc(NC(=O)CSc2nc(=O)n(CCN3CCOCC3)c3c2CCC3)cc1Cl as listed: -8%[7.34 µM]	-10%[7.34 µM]
